# Source: PubChem
# Arbovirus inh: antivirals against arbovirus infection; arbovirus infection cell-based antiviral screen; inhibition, % at 10 µM; actives 0.37% (n = 200,000);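 active means inhibition from about 30%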;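 further: bluetongue infection of BSR cells; cell survival read as ATP light after 72 h; 0% = infected wells without compound and 100% = uninfected wells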
# YopH inh: blocks Yersinia enterocolitica YopH tyrosine phosphatase | AID 898 | fluorescence Ex485/Em525 | actives 0.16% (n = 140,000) | inhibition, %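 (about 10 µM by stock and volumes)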;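 active means inhibition of 50% or more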;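 further: controls were vehicle for no effect and minimum signal wells for full effect; inactives centre near -20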
# RecA intein inh: Mtb RecA intein splicing inhibition; P9WHJ3; cell-free RecA intein splicing, fluorescence; inhibition, %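 (about 9 µM by stock and volumes)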; actives 0.75% (n = 290,000); AID 2221; in the data active means inhibition above about 30%; inconclusive means no clear call, values can overlap the other calls;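 further: 0% = vehicle wells and 100% = reference inhibitor control wells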
# Target sequence (P9WHJ3 whole entry, looked up): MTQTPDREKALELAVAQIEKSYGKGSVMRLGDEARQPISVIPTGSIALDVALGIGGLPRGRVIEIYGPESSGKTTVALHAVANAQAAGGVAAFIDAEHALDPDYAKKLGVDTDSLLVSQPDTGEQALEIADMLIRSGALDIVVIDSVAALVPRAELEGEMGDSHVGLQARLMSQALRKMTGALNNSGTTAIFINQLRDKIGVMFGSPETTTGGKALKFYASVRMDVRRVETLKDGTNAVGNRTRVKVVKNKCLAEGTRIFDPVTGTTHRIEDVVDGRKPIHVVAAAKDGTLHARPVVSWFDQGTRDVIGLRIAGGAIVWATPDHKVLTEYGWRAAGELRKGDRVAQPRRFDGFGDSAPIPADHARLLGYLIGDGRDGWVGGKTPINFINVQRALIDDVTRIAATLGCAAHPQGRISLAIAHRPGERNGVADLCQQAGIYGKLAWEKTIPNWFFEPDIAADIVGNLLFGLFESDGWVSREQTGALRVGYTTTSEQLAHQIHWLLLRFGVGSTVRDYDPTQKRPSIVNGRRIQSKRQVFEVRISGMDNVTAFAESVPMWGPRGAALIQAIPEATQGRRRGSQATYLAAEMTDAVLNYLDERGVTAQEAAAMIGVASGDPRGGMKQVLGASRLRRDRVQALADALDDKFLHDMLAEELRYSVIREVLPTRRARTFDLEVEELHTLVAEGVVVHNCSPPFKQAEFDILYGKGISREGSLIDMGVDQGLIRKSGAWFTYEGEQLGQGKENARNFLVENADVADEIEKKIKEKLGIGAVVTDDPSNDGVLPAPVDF
# Mtb bLac sens: beta-lactam sensitization of Mtb H37Rv | actives 0.27% (n = 330,000) | inhibition, % at 25 µM | M. tuberculosis H37Rv growth with meropenem, percent inhibition; hits of this screen are not shown here;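 active means about 74% or more and at least 40 points above the plate without the antibiotic, then above 30% in a dose series; inconclusive means first-round hits that could not be retested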;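 further: growth measured after seven days incubation then overnight dye step; 0% = bacteria only wells and 100% = bacteria with antibiotic; twin plates without the antibiotic show which effects depend on it; some results filed as inactive read as strong as hits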
# Mtb H37Rv: M. tuberculosis H37Rv growth inhibitors, H37Rv strain (AID 1626) | M. tuberculosis H37Rv growth inhibition; higher % means a stronger effect | inhibition, % at 10 µM, or IC50 in µM where a hit was titrated | actives 0.95% (n = 220,000);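 active means confirmed in a dose series; inconclusive means inhibition above 80% but not taken into the dose series; inactive means below 80% or under 30% at every dose of the series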;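 further: bacteria incubated seven days before Alamar blue readout; 0% = bacteria only wells and 100% = bacteria with antibiotic wells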
# Arbovirus inh repeat: further read-out of Arbovirus inh, marked with its call; inhibition, %; measured here: 10K subset replicate screen; many hits read low in the repeat;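 first of two repeat runs on a subset; 0% = infected and 100% = uninfected wells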
# The depositor's hits bear a star; ? = inconclusive; / = not tested or not shown. These rows are one share of the data, so the mix of outcomes need not match the whole.
SMILES,Arbovirus inh,YopH inh,RecA intein inh,Mtb bLac sens,Mtb H37Rv,others
Cc1ccc(S(=O)(=O)NCC2CCC(C(=O)NC3CCCCC3)CC2)cc1 (stereo not drawn),/,/,-2.6,3,/,
C[N+](C)(CC#N)C/C=C\c1ccccc1,3,/,0.0,1,-4%,
CC1(c2ccccc2)CC(c2ccccc2)=Nc2nonc2N1 (stereo not drawn),-7,-35,1.3,-5,8%,
O=C1C(Cl)=C(NCC2CCCO2)C(=O)N1c1cccc(Cl)c1Cl (stereo not drawn),13,-12,21,73,-2%,
Cc1ccc(NC(=O)c2ccc(CSc3nccc(C)n3)cc2)cc1,-4,-28,0.8,98,12µM*,
CCN(CC)C(=O)CSc1nc(O)c(Cc2ccccc2)c(=O)n1-c1ccc(C)cc1,/,/,-0.1,0,-3%,
O=C(CN1C2CCC1CC(NC(=O)C1CC1)C2)NCc1ccccc1 (stereo not drawn),4,-26,-2.6,4,-4%,
CC(C)Cc1nnc(NC(=O)CCC(=O)NCc2ccccc2Cl)s1,/,/,-1.4,3,/,
Cc1cc(C)n2cc(CSCC(=O)O)nc2n1,-10,-14,0.5,-1,-3%,
OCC[C@@H]1C[C@H](O)[C@@H](O)[C@@]2(CCc3ccccc3O2)O1,/,/,-1.7,1,/,
Cc1cc(C)c(NS(=O)(=O)c2ccc(NC(=O)c3cccs3)cc2)c(C)c1,5,-19,1.8,-2,-1%,
CCSc1nc2nn(-c3ccccc3)c(=O)c-2c2n1CCCCC2,6,-16,-1.5,-17,8%,
CC(=O)Oc1ccc(N(C(C)=O)S(=O)(=O)c2ccc(C)cc2)c2ccccc12,/,/,16,-7,/,
Cn1nc(C(=O)Nc2nnc(C3CC3)s2)c2ccccc2c1=O,11,/,-0.1,4,-8%,
CCc1ccccc1NC(=O)Cc1ccc(-n2cccc2)cc1,-4,-26,-5.8,-5,-3%,

# Entries listed so far with a carbonyl joined to an NH by a bond outside any ring:
SMILES,Arbovirus inh,YopH inh,RecA intein inh,Mtb bLac sens,Mtb H37Rv,others
Cc1ccc(S(=O)(=O)NCC2CCC(C(=O)NC3CCCCC3)CC2)cc1 (stereo not drawn),/,/,-2.6,3,/,
Cc1ccc(NC(=O)c2ccc(CSc3nccc(C)n3)cc2)cc1,-4,-28,0.8,98,12µM*,
O=C(CN1C2CCC1CC(NC(=O)C1CC1)C2)NCc1ccccc1 (stereo not drawn),4,-26,-2.6,4,-4%,
CC(C)Cc1nnc(NC(=O)CCC(=O)NCc2ccccc2Cl)s1,/,/,-1.4,3,/,
Cc1cc(C)c(NS(=O)(=O)c2ccc(NC(=O)c3cccs3)cc2)c(C)c1,5,-19,1.8,-2,-1%,
Cn1nc(C(=O)Nc2nnc(C3CC3)s2)c2ccccc2c1=O,11,/,-0.1,4,-8%,
CCc1ccccc1NC(=O)Cc1ccc(-n2cccc2)cc1,-4,-26,-5.8,-5,-3%,

# (continued)
SMILES,Arbovirus inh,YopH inh,RecA intein inh,Mtb bLac sens,Mtb H37Rv,others
COc1ccc(/C=C(\C#N)C(=O)NCCc2ccccc2)cc1OCc1ccccc1,-8,-6,1.0,1,7%,
CCOC(=O)C1CCCN(C(=O)c2cn(CC)c(=O)c3cc(OC)c(OC)cc23)C1 (stereo not drawn),-2,-2,1.6,0,-6%,
c1ccc(OCc2nc3ccccc3[nH]2)cc1,-11,-16,2.2,4,-1%,
CCOC(=O)Cc1csc(NC(=O)Cc2ccc([N+](=O)[O-])cc2)n1,0,-17,-0.6,9,9%,
COc1ccc(NC(=O)c2c(F)cccc2F)cc1S(=O)(=O)Nc1ccc(Br)cc1,14,-20,21,46,14%,
COc1ccc(OCC(=O)N2CCN(S(=O)(=O)c3ccccc3[N+](=O)[O-])CC2)cc1,9,/,-3.9,-7,-1%,
C/C(=N\O)c1c(O)cc(-c2ccccc2)n(-c2ccccc2)c1=O,/,/,-2.4,8,-1%,
O=C(C1=C[C@H](c2coc3ccccc3c2=O)C[C@H](OCCCCO)O1)N1CCN(Cc2ccccc2)CC1,-5,/,-1.0,3,0%,
Clc1ccc(C(c2nnnn2C2CCCC2)N2CCSCC2)cc1 (stereo not drawn),-2,-26,1.2,3,-4%,
O=C(O)C1CCC(Cn2c(SCc3cc(=O)n4cc(Br)ccc4n3)nc3ccsc3c2=O)CC1 (stereo not drawn),-3,/,2.2,11,10%,
Cc1cccc(NC(=O)c2ccc(Cn3cc(C(F)(F)F)ccc3=O)cc2)c1,-23,6,-0.5,10,-7%,
O=C(NC1CCCC1)C(c1ccc(Cl)cc1)N1CCc2ccccc21 (stereo not drawn),2,-34,-3.3,-5,-1%,
CCCSc1ccc([C@H]2N[C@@](CC(C)C)(C(=O)OC)[C@H]3C(=O)N(C)C(=O)[C@@H]23)cc1,/,/,2.7,-5,/,
COc1cc(C2C(C(=O)Nc3ccccc3OC)=C(C)Nc3ncnn32)ccc1O (stereo not drawn),10,-2,-0.5,-5,2%,Arbovirus inh repeat=7
Cc1ccc(-c2nc3ccccc3[nH]2)cc1NC(=S)NC(=O)c1ccccc1Br,-15,-33,-2.4,84,0%,
O=S(=O)(Cc1cc(Sc2ccc(Cl)cc2)nc(-c2ccccc2)n1)c1ccccc1,-3,-7,4.6,-8,-4%,
COc1ccc(C(=O)NCc2cccs2)cc1S(=O)(=O)N1CCOCC1,10,/,1.0,-6,-4%,
COc1ccc(OC)c(NC(=O)c2cnc3n(c2=O)CCS3)c1,4,-8,-2.5,3,3%,Arbovirus inh repeat=-1
O=C(O)CCc1ccc(-c2ccc(Br)cc2)n1-c1ccc(O)cc1,/,/,3.2,1,/,
NC(=O)C1CCN(S(=O)(=O)c2ccc3c(c2)OCCO3)CC1,/,/,-0.6,-4,-2%,
COc1ccc(N(C(=O)CCl)C(C)(C(=O)Nc2c(C)cccc2C)c2ccccn2)cc1 (stereo not drawn),8,-28,0.5,2,8%,
CCCN1CCN(CCCNC(=O)c2ccc(CS(=O)c3ccc(OC)cc3)o2)CC1 (stereo not drawn),/,/,-0.9,3,/,
COc1ccc(-c2cnc3nc[nH]c(=O)c3n2)cc1,-6,-10,-26,20,-4%,
COc1ccc(-c2noc(C3CCCN(C(=O)c4ccccc4C)C3)n2)cc1 (stereo not drawn),/,/,2.3,4,/,
CCOC(=O)CC(=O)CSc1ccc2nnc(-c3ccccc3)n2n1,-5,-32,0.4,-5,-8%,
O=C(NCCCN1CCN(c2ccccc2F)CC1)Nc1ccc(F)cc1,10,-44,0.3,-6,6%,
COc1ccc(-c2csc(Cc3nnc4n3CCCCC4)n2)cc1OC,6,-44,-0.5,-9,2%,
Cc1ccc(NC(=O)Nc2cccnc2)cc1,/,/,-1.4,2,/,
Cc1ccc(NN=C2C(=O)OC(C)(C)OC2=O)c(C)c1,-10,-18,0.1,33,2%,
CN(C)S(=O)(=O)c1cc(NC(=O)COC(=O)Cc2ccccc2)ccc1Cl,7,-26,2.7,-2,12%,
O=C(NC1CCCCC1)n1c(=O)oc2ccccc21,3,-36,-1.3,0,-1%,
O=c1[nH]n(-c2ncnc3c2cnn3-c2ccccc2)c(=O)c2ccccc12,-4,-42,-2.6,0,0%,Arbovirus inh repeat=5
O=S(=O)(c1ccc(Br)c2nsnc12)N1CCOCC1,8,-26,2.0,-4,0%,
Cc1nn(Cc2ccccc2)c(Cl)c1C(=O)OCc1nnc(-c2ccccc2)o1,-5,-4,13,-6,-7%,
Cc1ccc(C2C3=C(CC(C)(C)CC3=O)NC3=C2C(=O)CC(C)(C)C3)o1,7,-5,-1.2,-8,2%,
Cc1ccc(C)c(N2CCN(C(=O)c3cc4c(C)nc5ccccc5c4o3)CC2)c1,/,/,16,95,/,
OC(COCc1ccc2c(c1)OCO2)CN1CCC(Cc2ccccc2)CC1 (stereo not drawn),-21,/,0.1,-14,9%,
Cc1ccccc1C(=O)NC(CC(C)C)C(=O)Nc1cccc(S(=O)(=O)N(C)C)c1 (stereo not drawn),9,/,-4.4,12,2%,
O=C1OC(Nc2ncccn2)c2ccccc21 (stereo not drawn),5,-26,-1.7,?,-3%,
COc1ccc(OCC(=O)Nc2ccc(Cl)cc2C(=O)c2ccccc2)cc1,6,-31,1.4,-2,-2%,
CC(C)(C)OC(=O)N1CCC[C@H]1c1nnc(SCc2ccccc2Cl)o1,-1,-8,8.9,-7,6%,
Cc1ccc(-c2nc(N)sc2-c2ccccc2)cc1C,6,-16,0.3,?,21%,
COC(=O)C1=Cc2cc(OC)cc([N+](=O)[O-])c2OC1N1CCOCC1 (stereo not drawn),/,/,2.1,8,/,
COc1ccc(CC(=O)OCC(=O)NCc2ccco2)cc1OC,/,/,-2.2,0,/,
CCCc1nc2ccc([N+](=O)[O-])cc2[nH]1,-5,/,3.7,0,0%,

# Structural class: the entries above containing an NH in an aromatic ring.
SMILES,Arbovirus inh,YopH inh,RecA intein inh,Mtb bLac sens,Mtb H37Rv,others
c1ccc(OCc2nc3ccccc3[nH]2)cc1,-11,-16,2.2,4,-1%,
Cc1ccc(-c2nc3ccccc3[nH]2)cc1NC(=S)NC(=O)c1ccccc1Br,-15,-33,-2.4,84,0%,
COc1ccc(-c2cnc3nc[nH]c(=O)c3n2)cc1,-6,-10,-26,20,-4%,
O=c1[nH]n(-c2ncnc3c2cnn3-c2ccccc2)c(=O)c2ccccc12,-4,-42,-2.6,0,0%,Arbovirus inh repeat=5
CCCc1nc2ccc([N+](=O)[O-])cc2[nH]1,-5,/,3.7,0,0%,

# Later entries
SMILES,Arbovirus inh,YopH inh,RecA intein inh,Mtb bLac sens,Mtb H37Rv,others
CN(C)S(=O)(=O)c1cccc(C(=O)OCC(=O)NCc2ccccc2)c1,-1,-8,1.8,3,6%,
O=C(Nc1cccc(S(=O)(=O)NC2=NCCC2)c1)C1CC(=O)N(c2ccc3c(c2)OCCO3)C1 (stereo not drawn),6,/,0.2,0,0%,
CCOc1ccccc1NC(=O)Cn1[nH]c(=O)c2ccccc2c1=O,-4,/,4.3,4,-4%,
CCCCn1c(N)c(N(CCOC)C(=O)c2oc3ccc(OCC)cc3c2C)c(=O)[nH]c1=O,/,/,-0.5,1,/,
Cc1c(N=Cc2ccc(Cl)o2)c(=O)n(-c2ccccc2)n1C,4,-21,-5.5,-4,61%,
CSc1nc(N)nc(SCC(=O)C23CC4CC(CC(C4)C2)C3)c1C#N,-10,-24,3.8,99,28%,
C#CC1(OC(=O)c2ccccc2)CC(C)N(C)CC1C (stereo not drawn),/,/,-0.9,-4,/,
O=C(CN1C(=O)c2cccc3cccc1c23)NCc1ccccn1,-4,0,-6.9,0,-5%,
COc1cc(-c2csc(CCn3nc(C)cc3C)n2)cc(OC)c1OC,3,/,0.1,4,-2%,
Cc1nc(SCC(=O)NCc2ccco2)c2oc3ccccc3c2n1,-17,-46,2.6,-6,-2%,Arbovirus inh repeat=-3
COc1cccc(NC(=O)c2ccc(-n3cccn3)nc2)c1,8,-11,-0.2,-12,4%,
CCC(OC(C)=O)c1cc2c(cc1[N+](=O)[O-])OCCO2 (stereo not drawn),1,/,-4.7,-1,-8%,
COc1ccc(NC(=O)C2C3C=CC4(CN(Cc5cccnc5)C(=O)C24)O3)c(OC)c1 (stereo not drawn),10,7,0.2,-6,-5%,
O=C(CN1C(=O)COc2ccc(S(=O)(=O)N3CCCC3)cc21)NCc1ccccn1,/,/,-0.1,-1,4%,
CC1=C(C(=O)OCc2ccccc2)C(c2ccc([N+](=O)[O-])cc2)NC(=O)N1 (stereo not drawn),/,/,4.3,-3,/,
CCCCn1c(SCc2cccc([N+](=O)[O-])c2)nc2ccsc2c1=O,34*,12,7.4,5,9%,
O=C(COC(=O)c1ccc(OC(F)F)cc1)NCCNC(=O)COC(=O)c1ccc(OC(F)F)cc1,/,/,-1.4,2,/,
O=S1(=O)CC(O)C(N(CCO)C(=S)Nc2ccccc2)C1 (stereo not drawn),/,/,-0.7,3,-7%,
CCOC(=O)c1cnc2c(Cl)cc(Cl)cc2c1NCCOCCO,-7,-40,2.4,2,-4%,Arbovirus inh repeat=-7
N#CCSc1nnc2c(Cl)cc(Cl)cn12,-2,-25,0.7,9,-5%,
CCc1cc(SC#N)cc(C)c1NC(=O)CCl,-11,4,19,6,5%,

# Random excerpt: 2 entries already listed.
SMILES,Arbovirus inh,YopH inh,RecA intein inh,Mtb bLac sens,Mtb H37Rv,others
CCOC(=O)c1cnc2c(Cl)cc(Cl)cc2c1NCCOCCO,-7,-40,2.4,2,-4%,Arbovirus inh repeat=-7
O=C(COC(=O)c1ccc(OC(F)F)cc1)NCCNC(=O)COC(=O)c1ccc(OC(F)F)cc1,/,/,-1.4,2,/,
